High-throughput results: PubChem BioAssay, several laboratories
UCH37 inh = blocks the human deubiquitinase UCH37; purified proteasome/UCH37, Ub-AMC cleavage fluorescence; actives 0.33% (n = 330,000); inhibition, % (no concentration beside the values); Q9Y5K5; AID 588478;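 active = mean of two replicates above 20%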;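 note: 0% = compound-free wells with enzyme and 100% = wells lacking proteasome; stock transfer was 100 nL into about 20 µL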
Target sequence (Q9Y5K5 whole entry, looked up): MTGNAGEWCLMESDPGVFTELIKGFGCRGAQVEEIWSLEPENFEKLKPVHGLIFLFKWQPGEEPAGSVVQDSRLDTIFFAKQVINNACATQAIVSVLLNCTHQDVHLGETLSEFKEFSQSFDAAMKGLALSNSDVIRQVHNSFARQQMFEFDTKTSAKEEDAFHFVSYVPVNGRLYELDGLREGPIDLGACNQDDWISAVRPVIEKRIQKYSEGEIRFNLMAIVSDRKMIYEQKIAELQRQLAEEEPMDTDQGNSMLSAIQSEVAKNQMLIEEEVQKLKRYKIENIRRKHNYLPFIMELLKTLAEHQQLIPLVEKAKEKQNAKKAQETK
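System: Proteasome-associated human UCH37 deubiquitinase; Input: 0.15 nM proteasome in added enzyme buffer; Also added: Ub-AMC substrate from 1 µM stock; Incubation: 30 min compound-proteasome preincubation then 25 min substrate reaction, room temperature; Detection: fluorescence, ex 355 nm, em 460 nm; Read-out: % inhibition of Ub-AMC cleavage fluorescence; Benchmarks: no-proteasome and no-compound wells.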
ALR H2O2 inh = inhibitors of human sulfhydryl oxidase ALR; P55789; actives 3.8% (n = 290,000); purified ALR, DTT oxidation, H2O2 HRP-luminol luminescence; inhibition, % (test concentration not listed);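 active = mean and each replicate at 75% or more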;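 note: stock transfer was 7.5 nL into about 7.5 µL; 0% = neutral wells and 100% = wells with inactivated enzyme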
Target sequence (P55789 whole entry, looked up): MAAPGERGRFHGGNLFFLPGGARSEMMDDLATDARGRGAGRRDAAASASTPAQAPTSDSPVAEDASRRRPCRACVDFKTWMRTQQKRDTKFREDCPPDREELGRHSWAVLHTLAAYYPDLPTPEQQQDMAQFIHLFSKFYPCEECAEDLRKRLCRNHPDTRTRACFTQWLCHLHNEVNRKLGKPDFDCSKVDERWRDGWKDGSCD
E coli growth = inhibitors of Escherichia coli growth | OD600, 23 h; stronger effect = lower value | OD600 absorbance (concentration not given with the values) | actives 0.21% (n = 330,000) | AID 1053175;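 active = OD600 absorbance below the run mean of sample wells minus 3.6 SD, in any replicate, cut at about 0.56 in these data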;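 note: stock transfer was 300 nL into about 60 µL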
HNF4A DNA FP = change in binding of human HNF4 alpha to DNA | AID 1224865 | HNF4a-FITC DNA binding, fluorescence polarization, 1 h | activity change, % at 10 µM | P41235 | actives 0.3% (n = 360,000); in the data active = activity change above about 30%, passing the limit was not always enough;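 note: controls were the assay level and a saturating level of protein; the project sought stronger binding though the title names inhibitors; some compounds called inactive have numbers as strong as hits; positive values seem to mean higher polarization but the record does not say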
FGF22 binding = binders of recombinant human FGF22 by thermal shift | Q9HCT0 | SYPRO orange fluorescence; percent of sucrose octasulfate shift, DMSO zero | calls only at 9.99 µM | actives 1.5% (n = 340,000);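 active = melting point raised past a set limit in the mean and every replicate; three in four hits are not shown here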
Beta2AR agonist = agonists of human beta-2 adrenergic receptor inducing internalization | P07550 | Am2.2-beta2AR cells, FAP receptor internalization, flow cytometry; reference of the scale not given here | AID 504454 | response, % (concentration not given with the values) | actives 0.43% (n = 340,000);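 active = response above a set limit, near 3 SD of response in nonfluorescent compounds, cut at about 42% in these data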;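 note: stock transfer was 100 nL into about 11 µL; a reference agonist was the positive control; negative values mostly stem from fluorescent compounds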
Target sequence (P07550 whole entry, looked up): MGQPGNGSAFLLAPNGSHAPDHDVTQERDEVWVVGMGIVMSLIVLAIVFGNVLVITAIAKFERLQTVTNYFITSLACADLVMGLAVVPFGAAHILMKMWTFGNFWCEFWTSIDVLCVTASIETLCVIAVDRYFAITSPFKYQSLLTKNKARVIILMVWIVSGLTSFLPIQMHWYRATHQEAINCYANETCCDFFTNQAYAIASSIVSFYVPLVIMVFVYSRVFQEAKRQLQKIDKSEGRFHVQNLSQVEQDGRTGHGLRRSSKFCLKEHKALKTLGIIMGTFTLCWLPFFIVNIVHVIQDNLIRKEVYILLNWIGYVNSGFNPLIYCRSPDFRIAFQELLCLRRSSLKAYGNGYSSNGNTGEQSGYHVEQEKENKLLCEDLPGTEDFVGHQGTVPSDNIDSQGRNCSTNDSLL
LANA-H2A inh = blocks KSHV LANA binding to histone H2A/H2B; inhibition, % (concentration not given with the values); Q9QR71; actives 0.6% (n = 320,000); cell-free LANA-H2A/H2B peptide, fluorescence polarization; in the data active = inhibition mostly above about 10%, no sharp cut-off; inactive = mostly below about 6.7%;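 note: stock transfer was 7.5 nL into about 10 µL; 0% = median of vehicle wells and 100% = median of positive control wells; one replicate is shown; the record names a cut of 25% in any replicate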
Starred values were filed as active, the others as inactive; i = inactive; / = not tested or not shown; + = active, no number. An excerpt (hit frequency here may not be typical).

UCH37 inh | ALR H2O2 inh | E coli growth | HNF4A DNA FP | FGF22 binding | Beta2AR agonist | LANA-H2A inh | SMILES
4.2 | -29.3 | 0.708 | 1.6 | / | 5.6 | -3.0 | CCOC(=O)C(=O)N1CCN(c2cc3c(cc2[N+](=O)[O-])n(C)c(=O)n3C)CC1
-1.8 | -7.6 | 0.674 | 2.3 | i | -1.7 | 2.0 | CCc1nc2cccnc2n1-c1ccc(CC(=O)NC(C)CC)cc1 (stereo unspecified)
-40.4 | / | 0.729 | 1.3 | i | -8.3 | 1.8 | CC1CCCC(C)N1C(=O)COC(=O)c1cc(=O)[nH]c2ccccc12 (stereo unspecified)
1.7 | 1.8 | 0.706 | 1.0 | i | 1.0 | 3.2 | CCc1ccccc1NC(=O)CN1CCN(CC(=O)Nc2cc(C)ccc2OC)CC1
-1.7 | 13.3 | 0.686 | 0.1 | i | 15.3 | -4.7 | COc1ccc(C(=O)c2sc(Nc3ccccc3)nc2N)cc1OC
0.6 | / | 0.694 | -0.1 | / | -1.2 | / | C=C(C)c1cccc(C(C)(C)NC(=O)Nc2ccc(Cl)cn2)c1
0.0 | -14.3 | 0.663 | -0.2 | / | -3.7 | -2.3 | COc1ccc(CCNC(=O)CNCC2CCCO2)cc1OC (stereo unspecified)
-1.1 | 0.4 | 0.684 | -1.9 | i | 9.2 | 0.1 | O=C(CCNC(=O)c1ccccc1Cl)Nc1cc(C(F)(F)F)ccc1N1CCCC1
0.0 | 0.7 | 0.603 | 3.1 | i | -3.3 | 1.5 | CC(C)c1ccc(OCC(O)CN2CCN(c3ccccn3)CC2)cc1 (stereo unspecified)
0.8 | / | 0.63 | 1.5 | i | -0.9 | 2.3 | O=C(COc1cccc(-n2cnnn2)c1)Nc1ccccc1
-0.7 | -11.6 | 0.778 | 1.7 | / | -4.8 | 1.1 | CC(C(=O)N1CCCCC1)N1C(=O)c2ccccc2C1=O (stereo unspecified)
12.4 | -2.3 | 0.689 | -4.2 | i | 8.5 | -4.2 | N#C/C(=C(/O)COc1ccccc1)c1nc2ccccc2s1
3.8 | -0.8 | 0.644 | 0.7 | i | 1.3 | -1.7 | CNC(=O)/C(C#N)=C1/SC(Cc2ccc(F)cc2)C(=O)N1c1ccccc1 (stereo unspecified)
-1.8 | 8.3 | 0.739 | -4.0 | / | -7.5 | -1.7 | Cc1cc(C(=O)COC(=O)c2n[nH]c3ccccc23)c(C)n1CC1CCCO1 (stereo unspecified)
5.2 | -2.6 | 0.704 | 3.0 | i | -1.2 | -2.8 | COc1ccc(CNC(=O)Cn2nnc(-c3ccc(NC(=O)C4CCCCC4)cc3)n2)cc1
4.2 | -3.7 | 0.693 | -1.6 | i | 1.7 | 2.0 | CCOC(=O)N1CCN(S(=O)(=O)N2CCCC(C(=O)NCc3ccccc3Cl)C2)CC1 (stereo unspecified)
3.8 | 0.2 | 0.712 | 2.6 | i | -5.8 | -4.6 | CCOC(=O)C1CCCN(Cc2nc(N)nc(Nc3ccccc3OC)n2)C1 (stereo unspecified)
5.5 | 14.7 | 0.725 | -3.5 | i | 6.7 | 0.3 | Cn1cc(S(=O)(=O)N2CCc3ccccc32)cc1C(=O)NC(C)(C)C
1.1 | / | 0.643 | 2.7 | / | 6.3 | -0.9 | CN=C(NC1CCCCC1)c1ccc(Cl)cc1
4.1 | -17.7 | 0.655 | 10.1 | i | -4.0 | 4.2 | COc1ccccc1CNC(=O)Cn1cc(Br)ccc1=O
0.0 | 1.6 | 0.682 | -3.3 | + | 3.0 | -3.2 | c1ccc(NCc2ccccn2)cc1
2.0 | 1.0 | 0.671 | 2.9 | / | 3.1 | 3.9 | CC(=O)Nc1cccc(N(C)S(C)(=O)=O)c1
1.1 | 0.6 | 0.679 | -0.2 | i | 12.8 | 0.3 | CCCN1CCN(c2ncnc3scc(C4COc5ccccc5O4)c23)CC1 (stereo unspecified)
-6.1 | 10.7 | 0.739 | -15.3 | / | -0.5 | 3.0 | CCCSC1=N/C(=C\C=C\c2ccco2)C(=O)S1
3.0 | -6.3 | 0.699 | 1.9 | i | 0.4 | 1.4 | Cc1noc(C)c1S(=O)(=O)N(CC(=O)NC1CCC(C)CC1)c1ccc(C(C)C)cc1 (stereo unspecified)
1.8 | -3.9 | 0.675 | -2.2 | / | 12.2 | -1.3 | CCN(Cc1ccccc1)C(=O)CCCOc1ccccc1
0.4 | -3.3 | 0.714 | 4.5 | i | -2.5 | 0.3 | CC1CCc2[nH]c3ccc(C(=O)Nc4ccc(C(=O)N(C)C)cc4)cc3c2C1 (stereo unspecified)
6.6 | 2.4 | 0.706 | -1.2 | / | -3.5 | -4.0 | S=C1NC2=C(CCC/C2=C\c2ccc(Cl)cc2)C(c2ccc(Cl)cc2)N1 (stereo unspecified)
/ | -9.5 | / | -0.5 | / | 25.9 | 0.4 | O=C(N/N=C/c1cn(-c2ccccc2)nc1-c1ccc(F)cc1)c1ccc2c(c1)OCO2
0.2 | 92.5* | 0.648 | 3.9 | / | 11.3 | -3.2 | Clc1ccccc1CSc1nnc(-c2ccccn2)n1Cc1ccco1
1.2 | / | / | -1.2 | i | -1.4 | 7.2 | O=C(C1=C[C@@H](c2ccc(C(F)(F)F)cc2)C[C@@H](OCc2ccc(CO)cc2)O1)N1CCOCC1
1.5 | 33.7 | 0.732 | 0.2 | i | -6.1 | -5.9 | CCCCNC(=O)[C@H](CSCc1ccccc1)N1Cc2ccccc2C1=O
-3.2 | -0.8 | 0.774 | 2.4 | i | -1.2 | 2.0 | CC(=O)c1ccc(N2CCN(C(=O)c3noc4c3CSc3ccccc3-4)CC2)cc1
-6.1 | -6.2 | 0.651 | -4.0 | i | -1.8 | 1.7 | Cc1cc2nnc(SCC(=O)N3CCOCC3)n2c2ccccc12
0.2 | -4.5 | 0.647 | -5.1 | i | -1.7 | 5.0 | COc1ccccc1C(=O)NCCC(=O)NCC(c1ccccc1OC)N1CCCC1 (stereo unspecified)
-11.4 | / | 0.638 | / | / | / | 4.6 | CC1(C)Cc2c(c(N3CCCC3)nc3sc4c(N5CCNCC5)ncnc4c23)CO1
2.5 | / | 0.65 | 3.6 | i | -1.4 | -5.0 | CC(=O)Oc1ccccc1C(=O)N1CCN(S(=O)(=O)c2ccc3ccccc3c2)CC1
2.9 | -11.2 | 0.74 | 3.1 | i | 6.2 | -3.0 | O=C(NCc1cccnc1)NC1(c2ccccc2)CC1
1.8 | 5.3 | 0.72 | 1.8 | / | 11.7 | -1.9 | NC(=O)c1ccc(-n2nnnc2SCc2ccc(F)cc2)cc1
5.7 | 7.2 | 0.754 | 2.6 | i | -2.7 | 11.3 | Cc1ccc2oc(=O)c3cnn(CC(=O)N4CCCCC4C)c3c2c1 (stereo unspecified)
0.1 | -0.8 | 0.662 | 1.7 | / | -0.2 | -0.8 | CCOC(=O)Nc1ccccc1N1C(=O)c2ccccc2C1=O
-2.8 | / | 0.749 | 1.2 | / | 4.3 | / | O=C(c1ccc2c(c1)OCO2)[C@@H]1[C@@H]2C(=O)N(C3CCCCC3)C(=O)[C@@H]2C2c3ccccc3C=CN21 (stereo partly specified)
-38.6 | 17.7 | 0.72 | -1.3 | / | -7.7 | -1.1 | COCCNc1nc2ccccc2nc1NS(=O)(=O)c1ccc(C)cc1C
-0.5 | 6.6 | 0.697 | -2.3 | i | -7.4 | -2.1 | CCOC(=O)c1nnn(-c2nonc2N)c1-c1ccc(Br)cc1
3.8 | -0.8 | 0.673 | 0.9 | i | 2.6 | 2.8 | CN(C)S(=O)(=O)c1ccc(NC(=O)Cn2c(-c3ccccc3)noc2=O)cc1
-0.3 | 3.1 | 0.75 | -2.0 | / | -10.3 | 5.2 | CCC(=O)N1CCc2cc(S(=O)(=O)CCC(=O)O)ccc21
3.6 | -20.1 | 0.69 | 1.8 | i | -1.8 | 3.7 | CC(C)CC(CO)N1CCN(C(=O)c2ccc(Cl)c(Cl)c2)CCC1=O (stereo unspecified)
5.8 | / | 0.696 | -2.2 | i | 17.7 | / | Cc1nnnn1/C(=C\c1ccccc1)C(=O)OCC(=O)NC1CCCCC1

Of the compounds above, 2 contain a cyano group.
UCH37 inh | ALR H2O2 inh | E coli growth | HNF4A DNA FP | FGF22 binding | Beta2AR agonist | LANA-H2A inh | SMILES
12.4 | -2.3 | 0.689 | -4.2 | i | 8.5 | -4.2 | N#C/C(=C(/O)COc1ccccc1)c1nc2ccccc2s1
3.8 | -0.8 | 0.644 | 0.7 | i | 1.3 | -1.7 | CNC(=O)/C(C#N)=C1/SC(Cc2ccc(F)cc2)C(=O)N1c1ccccc1 (stereo unspecified)

Next section.
UCH37 inh | ALR H2O2 inh | E coli growth | HNF4A DNA FP | FGF22 binding | Beta2AR agonist | LANA-H2A inh | SMILES
3.3 | -0.5 | 0.644 | -1.5 | i | 4.5 | -0.9 | O=C1NC(=Nc2cccc(O)c2)S/C1=C\c1cccc([N+](=O)[O-])c1
2.9 | / | 0.667 | 3.0 | i | -4.0 | 3.8 | Cc1cc(Br)c(S(=O)(=O)NCc2cccnc2)cc1C
3.3 | -11.7 | 0.688 | -1.9 | i | -5.1 | -1.6 | Cc1cc(C)c(S(=O)(=O)c2cccc(Br)c2C)c(Cl)n1
2.5 | 0.9 | 0.657 | -2.6 | i | -2.2 | 3.8 | O=C(NNC(=O)c1cccc(Cl)c1)NNC(=O)c1cccc(Cl)c1
-5.3 | -10.6 | 0.705 | -2.8 | i | 3.8 | 0.9 | Cc1oc(-c2cccs2)nc1CN1CCN(C(C)C)C(CCO)C1 (stereo unspecified)
2.8 | / | 0.681 | -0.2 | i | 4.3 | -0.2 | O=S(=O)(NC1=NCCC1)c1cccc(NS(=O)(=O)c2ccc(F)c(Cl)c2)c1
0.3 | 2.9 | 0.672 | 0.8 | / | 8.3 | -1.4 | CCOC(=O)C1=C(CSCc2ccccc2)NC(=O)NC1c1cc(C)ccc1C (stereo unspecified)
-202.6 | 20.9 | 0.694 | 2.2 | / | 6.8 | 0.1 | Cc1nc2ccc(N)cc2c(=O)n1Cc1ccc(Cl)cc1
0.3 | -9.3 | 0.693 | 2.7 | i | -6.2 | -5.0 | COc1ccc(CNC(=O)C(=O)NCC2CCCN2S(=O)(=O)c2cccs2)cc1 (stereo unspecified)
3.3 | -3.1 | / | 1.5 | i | -1.5 | 2.7 | CC(=O)N[C@H]1C(O)O[C@H](CO)[C@@H](O)[C@@H]1O (stereo partly specified)
5.3 | -0.7 | 0.694 | -1.2 | / | 4.2 | 2.7 | CCOC(=O)C(C(=O)OCC)C(Nc1cccc(Br)c1)c1ccccc1 (stereo unspecified)
/ | / | / | 2.7 | i | 2.1 | / | COc1ccc(-c2coc3cc(OC)ccc3c2=O)cc1
7.8 | -10.3 | 0.735 | 0.2 | i | -3.6 | -3.5 | Cc1cc2c(cc1S(=O)(=O)Nc1cccc(F)c1)n(C)c(=O)c(=O)n2C
0.0 | 61.2 | 0.756 | 6.3 | i | 15.8 | -5.8 | Cc1ccc2c(c1)C1CN(C)CCC1N2S(=O)(=O)c1ccc(Oc2ccc([N+](=O)[O-])cc2)cc1 (stereo unspecified)
2.0 | -3.8 | 0.688 | -3.0 | i | 5.7 | -2.0 | Cc1cccc(N(C(=O)c2ccc(Cl)cc2)C2CS(=O)(=O)CC2OC(=O)c2ccc(Cl)cc2)c1 (stereo unspecified)
3.7 | -16.8 | 0.699 | 1.2 | / | 11.4 | -1.0 | Cc1ccc(NC(=O)C(NC2CCCc3ccccc32)c2ccccc2)cc1Cl (stereo unspecified)
1.4 | 99.2* | 0.696 | -1.3 | i | -2.6 | 4.2 | COc1cccc(CNc2ccc3c(c2)nc(C)n3C)c1OC
6.9 | -1.9 | 0.699 | 4.0 | i | 8.3 | 1.9 | CCc1nc2ccccc2c(C(=O)OCC(=O)Nc2ccc(NC(C)=O)cc2)c1C
-0.8 | -0.1 | 0.668 | -4.8 | / | 6.0 | 0.2 | Cc1cc(C)c(NC(=O)c2cccc3c2C(=O)N(C2CCCCC2)C3)c(C)c1
